Assay outcomes from PubChem BioAssay.
PKD1 inh: inhibitors of human PKD1 kinase; AID 797; 0.056% of 200,000 active; PKD1 kinase fluorescence polarization assay; Q15139; inhibition, %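 (about 10 µM by stock and volumes)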;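 active = inhibition of 50% or more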;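 note: controls were vehicle for no effect and a reference inhibitor for full effect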
RGS16-Gao HTS: modulates binding between human RGS16 and Galphao. O15492+P09471. bead-based flow cytometry RGS16-Galphao binding, fluorescence; actives lie on both sides. binding response (% of control), % at 10 µM. 0.38% of 220,000 active;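 active = below 25% or above 175%, edge rows of some plates excepted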;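 note: Galphao activated by GDP with aluminum fluoride before binding; 100% = wells without compound and 0% = beads without RGS; some results beyond the cut were filed as inactive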
Target sequence (O15492 whole entry, looked up): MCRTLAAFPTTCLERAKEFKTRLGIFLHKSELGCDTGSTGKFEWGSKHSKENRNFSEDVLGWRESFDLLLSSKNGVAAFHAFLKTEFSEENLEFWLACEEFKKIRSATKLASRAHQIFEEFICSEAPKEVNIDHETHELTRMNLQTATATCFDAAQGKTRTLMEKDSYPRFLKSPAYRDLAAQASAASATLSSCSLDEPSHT
Target sequence (P09471 whole entry, looked up): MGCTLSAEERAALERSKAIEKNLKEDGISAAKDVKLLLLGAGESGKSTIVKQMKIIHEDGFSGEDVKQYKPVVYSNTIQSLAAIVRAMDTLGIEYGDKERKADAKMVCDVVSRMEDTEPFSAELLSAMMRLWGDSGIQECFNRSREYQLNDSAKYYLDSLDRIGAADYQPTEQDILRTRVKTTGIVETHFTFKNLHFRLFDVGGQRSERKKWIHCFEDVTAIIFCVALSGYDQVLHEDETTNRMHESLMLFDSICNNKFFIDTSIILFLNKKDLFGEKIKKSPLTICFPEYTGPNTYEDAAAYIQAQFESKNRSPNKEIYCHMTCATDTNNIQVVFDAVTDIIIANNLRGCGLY
INS promoter inh: TRM-6 insulin promoter activity inhibition. TRM-6 cells (human fetal islet line), insulin promoter-eGFP reporter, imaging; reporter expression induced with tamoxifen. inhibition, % at 2 µM. 0.9% of 130,000 active. AID 1273;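 active = inhibition above the mean plus 3 SD, with well images judged a real hit on visual review, cut at about 60% in these data, passing the limit was not always enough; inconclusive = inhibition over the cutoff but images rejected on review; inactive = inhibition not above the cutoff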
GALR2 ag: activates the human galanin receptor 2; GALR2-expressing cells, agonist activation read-out; O43603; activation, %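 (tested at 5 µM)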; 0.48% of 140,000 active;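 active = above mean plus 3 SD of all compounds, about 5% in these data, not always enough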;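 note: 0% = vehicle buffer wells and 100% = reference agonist at full effect; tested in CHO reporter cells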
Target sequence (O43603 whole entry, looked up): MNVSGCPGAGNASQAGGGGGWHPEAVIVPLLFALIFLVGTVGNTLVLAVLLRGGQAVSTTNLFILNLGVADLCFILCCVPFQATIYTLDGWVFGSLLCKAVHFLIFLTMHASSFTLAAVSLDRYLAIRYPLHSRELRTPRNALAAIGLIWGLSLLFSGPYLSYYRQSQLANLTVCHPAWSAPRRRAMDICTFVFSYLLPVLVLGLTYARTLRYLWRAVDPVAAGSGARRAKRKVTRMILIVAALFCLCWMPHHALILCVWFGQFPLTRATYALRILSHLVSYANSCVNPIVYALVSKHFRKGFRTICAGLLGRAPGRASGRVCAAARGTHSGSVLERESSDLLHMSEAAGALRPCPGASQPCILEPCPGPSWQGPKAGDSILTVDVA
HSV replic up: HSV replication enhancement. maximum fold increase. AID 1956. HSV replication augmentation in cells, fold increase. 0.005% of 220,000 active;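 active = peak rise of 1.5-fold or more in the series; inconclusive = self-fluorescent or not available for retest; tested in PC3 cells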;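 note: first round at 10 µM; read as green reporter fluorescence; hits show the peak of a series up to 25 µM; 1 = signal of infected wells without compound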
INS promoter inh cell count: further read-out of INS promoter inh, marked with its call; normalized cell count, %; measured here: cell count, toxicity; reference of the scale not given here;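 cells exposed to compound for 48 h; stained nuclei by imaging scaled within each plate; lower means fewer cells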
HSV replic up primary fold: recorded beside HSV replic up, whose call it bears; fold increase; compound at 10 µM; measured here: primary screen fold increase 10 uM; tested in PC3 cells;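 GFP signal in the first replicate; 1 = infected wells without compound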
Active calls of the source: *; i = inactive; ? = inconclusive; . = no result given.

SMILES	PKD1 inh	RGS16-Gao HTS	INS promoter inh	INS promoter inh cell count	GALR2 ag	HSV replic up	HSV replic up primary fold
N#Cc1c(SCC(N)=O)nc2c(c1-c1ccc(OCc3ccccc3)cc1)CCCC2	-1	.	-12	83	-1.7	.	.
CCCS(=O)(=O)c1nc(S(=O)(=O)c2ccc(C)cc2)c(N2CCCC2)s1	-5	103	0	110	-0.5	i	0.95
COC(=O)c1cccc(NC(=O)CC2NCCNC2=O)c1 (configuration not stated)	.	98	.	.	.	i	0.97
N#Cc1ccccc1NC(=O)CNc1ccccc1N1CCCCC1	-7	101	-30	95	-1.1	i	0.82
Cc1cc(Cl)c(S(=O)(=O)Nc2ccon2)cc1OCC(=O)NC1CCCCC1	2	106	20	106	-0.3	i	0.93
COc1ccc(N2CCN(CCCNC(=O)C3CCCN(S(=O)(=O)c4cnc[nH]4)C3)CC2)cc1 (configuration not stated)	-11	102	-71	40	-0.7	i	0.84
COc1ccc(OC)c(NC(=S)NCCN2CCOCC2)c1	5	86	36	94	-1.7	i	1
CCOC(=O)c1c(C)n(OCc2ccccc2)c2ccc3nonc3c12	-5	101	.	.	-0.7	i	0.75
O=C(Nc1ccc2c(c1)C(=O)OC2)c1ccc(F)cc1F	.	105	.	.	.	i	1
CCCc1cc(=O)n2[nH]c(C(F)(F)F)nc2n1	-5	119	55	91	.	i	1
Cc1cc(=O)oc2cc(OCC(=O)N3CCCc4ccccc43)ccc12	-7	98	36	113	-1.6	i	1
Cc1c(NC(=O)c2ccc(-c3ccccc3)cc2)cccc1C(=O)O	.	97	.	.	.	i	0.85
CN(C)CCN1C(=O)c2oc3ccccc3c(=O)c2C1c1cccc(Br)c1 (configuration not stated)	1	92	12	122	-0.8	i	0.96
CSC(=NS(=O)(=O)c1ccccc1)SC	-4	105	-15	114	-3.4	i	0.92
CC1(C(=O)NCc2cc(F)cc(C(F)(F)F)c2)C=CC2(CCCCC2)N1C(=O)c1ccccc1 (configuration not stated)	1	95	-105	87	-0.8	i	0.74
Cn1c(=O)c2c(-c3ccccc3)n(-n3cnnc3)cc2n(C)c1=O	-8	101	.	.	-1.0	i	1
CCCc1cnc(N2CCN(S(=O)(=O)c3cccs3)CC2)nc1	.	95	.	.	.	i	0.97
CCOC(=O)c1cnc2nc(N3CCOCC3)nn2c1N	1	102	23	107	.	.	.
CCOC(=O)C(Cc1ccccc1)NC(=O)CCc1c(C)nc2ncnn2c1C (configuration not stated)	5	102	0	105	-3.0	i	0.8
CC1CC2(CCCCC2)Nc2c1ccc1ccccc21 (configuration not stated)	-4	98	-405	30	-1.4	i	1.1

Structural class, the entries above with an NH in an aromatic ring.
SMILES	PKD1 inh	RGS16-Gao HTS	INS promoter inh	INS promoter inh cell count	GALR2 ag	HSV replic up	HSV replic up primary fold
COc1ccc(N2CCN(CCCNC(=O)C3CCCN(S(=O)(=O)c4cnc[nH]4)C3)CC2)cc1 (configuration not stated)	-11	102	-71	40	-0.7	i	0.84
CCCc1cc(=O)n2[nH]c(C(F)(F)F)nc2n1	-5	119	55	91	.	i	1

Following part
SMILES	PKD1 inh	RGS16-Gao HTS	INS promoter inh	INS promoter inh cell count	GALR2 ag	HSV replic up	HSV replic up primary fold
Nc1nonc1C(=Nc1ccc(Br)cc1)NO	1	106	-14	198	-1.6	i	0.76
S=C(c1ccc(-c2ccccc2Cl)o1)N1CCCCC1	4	99	.	.	-1.4	.	.
Cc1cc(C)c2[nH]c(=O)c(CN(Cc3ccco3)C(=S)NCC3CCCO3)cc2c1 (configuration not stated)	-2	83	15	122	-0.1	i	0.94
COC(=O)c1ccccc1NC(=O)N1CCCC1	-10	103	.	.	-1.6	i	0.92
CC(=O)Nn1cc2c(=O)n(C)c(=O)n(C)c2c1	1	96	-12	105	-0.7	i	0.81
N/C(=N\OC(=O)c1cccnc1)c1ccccc1Cl	2	99	.	.	.	i	0.94
COCCCN1C(=O)C(O)=C(C(=O)c2ccco2)C1c1ccccc1 (configuration not stated)	-2	103	0	102	-0.4	i	0.93
COC(=O)c1ccc(OCCOCCOc2cccc3ccc(C)nc23)cc1	-14	111	-140	66	-0.6	i	0.78
Cc1nn(Cc2ccccc2Cl)c(C)c1NC(=O)c1noc2c1CCCCC2	-6	99	.	.	-1.4	i	0.75
O=C(NC1CCCc2ccccc21)c1ccc(CNc2c(N3CCOCC3)c(=O)c2=O)cc1 (configuration not stated)	4	102	.	.	1.4	i	0.92
N#Cc1ccccc1CSc1nc(O)cc(=O)[nH]1	-4	107	50	122	-4.0	i	1
CCC1C(c2ccccc2)N(C)C(c2ccccc2)CC1(O)c1ccccc1 (configuration not stated)	-6	103	.	.	.	i	0.91
Cc1ccc(-c2n[nH]c(=S)c3ccccc23)cc1	-3	110	58	113	.	i	0.99
NNC(=O)CN1C(=O)Nc2ccc(Br)cc2C1c1ccccc1 (configuration not stated)	4	36	73	98	-1.6	i	0.94
CCCc1nc(NCCO)c(C#N)c2c1CCCC2	.	86	.	.	.	i	0.95
Cc1cccc(NC(=O)CSc2ncnc3nc[nH]c23)c1C	-17	104	.	.	-2.5	i	0.92
Cc1cc(C(=O)COC(=O)CCc2nc3ccccc3c(=O)[nH]2)c(C)n1CC1CCCO1 (configuration not stated)	.	89	.	.	.	i	1.2
Cc1cc(C(=O)Nc2ccc3nc(C)sc3c2)c2ccccc2n1	.	95	.	.	.	i	0.89
CN(C)c1ccc(N=Cc2nc(-c3ccccc3)oc2O)cc1	-11	101	-55	87	-2.7	?	.
CCOC(=O)C(=CNc1ccc2c(c1)nnn2-c1ccc(Cl)cc1)C(=O)OCC	-9	100	-3	143	-0.9	i	0.7
Cc1ccc2nc(N3CCN(Cc4nnnn4C4CCCC4)CC3)c(C#N)cc2c1	8	56	100*	18*	-3.3	i	0.92
COc1ccccc1-c1noc(CCCC(=O)N2CCOCC2)n1	.	100	.	.	.	i	1.2
Cc1cccc(C(=O)Oc2ccccc2/C=N/NC(=O)c2ccc(NC(=O)C(C)(C)C)cc2)c1	-1	128	-59	75	0.7	i	1
Cc1nc2c(=O)n(-c3ccc(F)cc3F)nc(C)c2s1	.	104	.	.	.	i	1.1
CCOC(=O)C1=C(O)C(=O)N(c2ccc(S(N)(=O)=O)cc2)C1c1ccc(Br)cc1 (configuration not stated)	.	93	.	.	.	i	0.91
C=C(C(=O)c1ccccc1)C(C(=C)C(=O)c1ccccc1)c1ccc(OC)cc1	.	104	.	.	.	i	0.53
O=C(NCc1nc2ccccc2[nH]1)C1=C[C@H](C2CC2)C[C@H](OCc2ccc(CO)cc2)O1	.	107	.	.	.	i	0.94
N#Cc1ccc(CSc2nnc(-c3cnccn3)o2)cc1	-4	102	55	38	1.1	i	1
CCCCNC(=O)CC1NCCNC1=O (configuration not stated)	-6	99	37	95	.	i	0.96
COc1ccc(C2(C(=O)Nc3ccc(OC)cc3OC)CCCC2)cc1	-5	99	-10	128	.	i	1.1
COc1cc(OC)c(S(=O)(=O)Nc2ccccc2N2CCCCC2)cc1NC(C)=O	.	101	.	.	.	i	0.89
CCN=C1NN=C(c2cc(C)n(Cc3ccco3)c2C)CS1	-9	102	0	55	-2.2	i	0.95
N#Cc1c(N)[nH]c(=S)c(C#N)c1-c1ccccc1	-12	92	.	.	-1.2	i	0.91
COc1ccccc1-c1c(C)oc2cc(OC(=O)c3ccco3)ccc2c1=O	-12	107	-100	92	-2.2	i	0.91
COC(=O)c1ccccc1NC(=O)CSc1nnnn1-c1ccc(C)cc1C	-3	93	23	205	-2.2	i	1
CCOc1nc2ccccc2nc1NS(=O)(=O)c1ccccc1	-8	128	.	.	-0.3	i	0.99
c1ccc(N2CCN(CCc3nnc4n3CCCCC4)CC2)cc1	0	103	.	.	-2.1	i	0.79
O=C(N=C1c2ccccc2CN1c1cccc(Cl)c1)c1cccnc1	7	99	-3	106	0.0	i	0.98
O=C1C2CC=CCC2C(=O)N1c1cccc(OS(=O)(=O)c2ccc3ccccc3c2)c1 (configuration not stated)	-6	134	15	141	-2.5	i	0.92
CCOC(=O)CC(=O)NC1(Cc2ccc(O)cc2)CCCCC1	-1	95	36	109	.	i	0.98
COCCn1c(=S)[nH]c2cc(C(=O)N3CCc4ccccc43)ccc2c1=O	-5	80	.	.	-3.0	i	0.77
COc1ccc(-c2[nH]ncc2-c2ccc(Cl)cc2)c(O)c1	8	122	.	.	-3.1	i	0.92
Cc1ccc(CN2CCN(/N=C/c3cc(Br)cc(Br)c3O)CC2)cc1	-6	161	-7	44	-0.7	i	1.1
O=C(Cc1ccccc1)NNC(=O)c1ccccc1C(=O)O	.	101	.	.	.	i	1.1
O=C(C1CC(=O)N(c2ccccc2)C1)N1CCN(C2=NS(=O)(=O)c3ccccc32)CC1 (configuration not stated)	-3	96	-494	33	-1.2	i	0.84
CCOc1cc(C2C(C(=O)OC)=C(C)N=C3SC(C)C(=O)N32)ccc1OC(C)=O (configuration not stated)	5	106	-86	72	-1.4	i	0.92
c1ccc(-n2ncc3c(NCc4cccs4)ncnc32)cc1	6	26	.	.	-0.6	i	0.87
CCN(CC)c1ccc(C(=O)N/N=C/c2ccccc2OC(F)F)cc1	-3	118	-9	73	.	i	0.74
CSc1nc(-c2ccccc2)nc(N2CCCC2)c1C(C)=O	-11	92	16	117	-4.0	i	0.91
Cc1c(-n2c(CN3C(=O)c4ccccc4C3=O)nc3ccccc3c2=O)c(=O)n(-c2ccccc2)n1C	-4	.	47	146	-0.8	i	0.97

(continued)
SMILES	PKD1 inh	RGS16-Gao HTS	INS promoter inh	INS promoter inh cell count	GALR2 ag	HSV replic up	HSV replic up primary fold
COC(=O)c1sccc1NC(=S)Nc1ccccc1	-13	103	-10	133	-1.7	i	1
O=C(/C=C/c1cccc([N+](=O)[O-])c1)Nc1ccccn1	0	117	58	45	.	i	0.98
Cc1ccc(Sc2nc(-c3ccccc3)nnc2C(F)(F)F)cc1	3	99	.	.	-2.1	i	0.94
O=C(c1cccc(N2C(=O)C3C4C=CC(C4)C3C2=O)c1)N1CCCc2ccccc21 (configuration not stated)	1	109	4	80	.	i	0.99
COc1ccc2[nH]c(C)c(C(=O)CN3CCc4cc(OC)c(OC)cc4C3)c2c1	-2	106	.	.	-1.8	.	.
CCOC(=O)c1c(C)n(-c2ccc(OC)cc2)c2c(C/C(C)=N/O)c(Br)c(OC)c(O)c12	-5	87	26	109	-4.8	i	0.83
O=C(N/N=C/c1ccccc1O)c1cc(=O)[nH]c2ccccc12	-9	95	-11	149	-0.3	i	0.75
CCCC/C(C)=N/NC(=O)CN(c1ccc(Br)cc1)S(=O)(=O)c1ccccc1	4	94	13	81	-2.4	i	0.86
CCOC(=O)c1sc(NC(=O)CSc2nc(C)cc(-c3ccccc3)n2)c(C#N)c1C	-8	61	.	.	0.7	i	1
COC(=O)C1=C(C)N(CCC2=CCCCC2)C(=O)C1	1	103	-9	97	-2.0	i	0.92
CC1CCN(c2c(NCC3CCC(C(=O)N4CCc5ccccc5C4)CC3)c(=O)c2=O)CC1 (configuration not stated)	-5	98	.	.	-1.7	i	0.84

Of the compounds above, 10 have an aryl methoxy group:
SMILES	PKD1 inh	RGS16-Gao HTS	INS promoter inh	INS promoter inh cell count	GALR2 ag	HSV replic up	HSV replic up primary fold
COc1ccc(N2CCN(CCCNC(=O)C3CCCN(S(=O)(=O)c4cnc[nH]4)C3)CC2)cc1 (configuration not stated)	-11	102	-71	40	-0.7	i	0.84
COc1ccc(OC)c(NC(=S)NCCN2CCOCC2)c1	5	86	36	94	-1.7	i	1
COc1ccccc1-c1noc(CCCC(=O)N2CCOCC2)n1	.	100	.	.	.	i	1.2
C=C(C(=O)c1ccccc1)C(C(=C)C(=O)c1ccccc1)c1ccc(OC)cc1	.	104	.	.	.	i	0.53
COc1ccc(C2(C(=O)Nc3ccc(OC)cc3OC)CCCC2)cc1	-5	99	-10	128	.	i	1.1
COc1cc(OC)c(S(=O)(=O)Nc2ccccc2N2CCCCC2)cc1NC(C)=O	.	101	.	.	.	i	0.89
COc1ccccc1-c1c(C)oc2cc(OC(=O)c3ccco3)ccc2c1=O	-12	107	-100	92	-2.2	i	0.91
COc1ccc(-c2[nH]ncc2-c2ccc(Cl)cc2)c(O)c1	8	122	.	.	-3.1	i	0.92
COc1ccc2[nH]c(C)c(C(=O)CN3CCc4cc(OC)c(OC)cc4C3)c2c1	-2	106	.	.	-1.8	.	.
CCOC(=O)c1c(C)n(-c2ccc(OC)cc2)c2c(C/C(C)=N/O)c(Br)c(OC)c(O)c12	-5	87	26	109	-4.8	i	0.83
